From PubChem
Polio RdRp inh = inhibitors of poliovirus RNA polymerase binding and polymerization | poliovirus polymerase elongation, fluorescence polarization; hits give low values | % elongation, % (compound at 16.7 µg/mL) | actives 0.66% (n = 150,000) | AID 588519; in the data active means % elongation below about 90%; further: some results filed as inactive read as strong as hits
Target sequence (P03300 1749-2209 limits assumed): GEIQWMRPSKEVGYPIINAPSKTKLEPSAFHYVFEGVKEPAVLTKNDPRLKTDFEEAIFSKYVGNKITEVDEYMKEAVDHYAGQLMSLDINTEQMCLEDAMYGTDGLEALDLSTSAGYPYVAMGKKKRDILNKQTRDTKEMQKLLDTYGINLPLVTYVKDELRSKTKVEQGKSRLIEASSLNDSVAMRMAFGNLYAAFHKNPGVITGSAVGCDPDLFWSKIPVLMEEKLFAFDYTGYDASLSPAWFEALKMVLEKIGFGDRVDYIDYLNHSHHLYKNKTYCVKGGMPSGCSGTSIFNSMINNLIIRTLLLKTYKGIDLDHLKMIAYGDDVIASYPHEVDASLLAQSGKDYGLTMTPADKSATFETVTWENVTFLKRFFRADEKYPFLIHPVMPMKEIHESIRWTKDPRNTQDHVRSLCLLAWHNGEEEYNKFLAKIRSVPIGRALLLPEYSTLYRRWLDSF
Polio RdRp inh intensity = second read-out of Polio RdRp inh, no call of its own (marks repeat the call); % elongation; measured here: total intensity read-out; formula for this scale not given here;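 total fluorescence in place of polarization; lower means less elongation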
* hit, by the source's call. The list is partial; the hit share may differ from the screen's.

no.	SMILES	Polio RdRp inh	Polio RdRp inh intensity
1	COc1ccc2oc(-c3cccc(NC(=O)c4ccc(C#N)cc4F)c3)nc2c1	106.0	108.0
2	Cc1ccc(NC(=O)CN2C(=O)COc3ccc(S(=O)(=O)N4CCCCC4)cc32)cc1Cl	121.0	124.0
3	O=C(Nc1ccc(F)cc1F)c1ccc(-n2cnnc2)cc1	106.0	109.0
4	CCn1c(=O)cc(SCC(=O)Nc2cc(Cl)ccc2OC)c2ccccc21	111.0	112.0
5	Cc1ccc(C)c(CN2C(=O)c3ccccc3S(=O)c3ccc(C(=O)NCCC4=CCCCC4)cc32)c1 (stereo not given)	110.0	108.0
6	Cc1ccc2nc(-c3ccc(Cl)c(NC(=O)COc4ccc(C(C)C)cc4)c3)oc2c1	108.0	111.0
7	CN1CCc2c(sc3c2C(=O)NC(c2ccc(C(C)(C)C)cc2)N3)C1 (stereo not given)	95.0	241.0
8	COc1ccccc1NC(=O)Cn1c(=O)n(-c2ccc(C)cc2)c(=O)c2ccc(C(=O)NCc3ccco3)cc21	112.0	111.0
9	COc1ccc(N2CCN(S(=O)(=O)c3ccc(-c4coc(C)n4)cc3)CC2)cc1	109.0	116.0
10	CCc1nn(CCCC(=O)N2CCN(c3cc(Cl)ccc3C)CC2)c(=O)c2cc3occc3n12	105.0	106.0
11	Cc1cccc(Cn2cccc(C(=O)Nc3nc4ccccc4s3)c2=O)c1	102.0	102.0
12	CN(C)c1ccc(CNC(=O)Cn2c(=O)oc3cc(S(=O)(=O)N4CCCCCC4)ccc32)cc1	108.0	112.0
13	Cc1cccc(C(c2sc3nc(-c4ccco4)nn3c2O)N2CCN(Cc3ccccc3)CC2)c1 (stereo not given)	110.0	102.0
14	Cc1cccc(-c2noc(CNC(=O)c3ccco3)n2)c1	106.0	113.0
15	Cc1ccc(C)c(NC(=O)CSc2ncc3c(n2)-c2ccccc2N(Cc2ccccc2C)S3(=O)=O)c1	111.0	112.0
16	O=C(Nc1nnc(C2CC(=O)N(c3ccc(Cl)cc3)C2)s1)c1ccco1 (stereo not given)	105.0	104.0
17	Cc1ccc(S(=O)(=O)c2cnc(SCC(=O)Nc3ccc4c(c3)OCCO4)[nH]c2=O)cc1Cl	103.0	111.0
18	Cc1cccc(Nc2nnc(-n3nc(C)cc3C)c3ccccc23)c1	109.0	106.0
19	CCN(CC)C(=O)CSc1nc(-c2ccc(C)cc2)nc2c1Cc1c(CO)cnc(C)c1O2	104.0	105.0
20	CC(=O)c1c(C)oc2c1cc(NS(=O)(=O)c1ccc(Cl)c(C)c1)c1ccccc12	107.0	109.0
21	CCOC(=O)CNC(c1ccccc1)c1cc(Br)ccc1NC(=O)c1ccc(Cl)cc1 (stereo not given)	100.0	108.0
22	CCCNC(=O)c1ccc(-n2c(-c3ccccc3)cc3c2CCCCC3)cc1	110.0	104.0
23	COc1ccc(OCC(=O)OCc2cc(=O)n3nc(C4CCCCC4)sc3n2)cc1	104.0	110.0
24	COc1ccc(CNC(=O)c2ccc(NC(=O)N3CCSc4ccccc43)cc2)cc1	111.0	113.0
25	COc1ccc(-n2c(=O)c3c4c(sc3n(CC(=O)N3CCCCC3C)c2=O)CCC4)c(OC)c1 (stereo not given)	100.0	106.0
26	COc1ccc(OC)c(NC(=O)CN2CCCN(Cc3ccccc3Cl)S2(=O)=O)c1	110.0	98.0
27	COC(=O)C1=C(C)N=C2SCCC(=O)N2C1c1ccc(OCc2ccccc2)c(OC)c1 (stereo not given)	110.0	113.0
28	Cc1ccc(NC(=O)Cn2nnc(-c3nc(-c4ccc(Cl)cc4)no3)c2N)cc1C	112.0	117.0
29	COc1ccc(CNC(=O)CCNS(=O)(=O)c2ccc3c(c2)oc(=O)n3C)cc1	106.0	106.0
30	Cc1ccc(N2CCN(C(=O)Nc3cn(CC(C)C)c(=O)c4ccccc34)CC2)c(C)c1	68.0*	63.0*
31	O=C(C1CCCCC1)N(Cc1cccnc1)c1nc2ccc(Cl)cc2s1	96.0	100.0
32	CCc1nn(CC(=O)NCCCOC)c(=O)c2cc3ccccc3n12	115.0	116.0
33	CCN1C(C(=O)c2ccccc2)=C(OC(=O)c2ccccc2OC)c2ccccc2S1(=O)=O	101.0	101.0
34	COc1cc(NC(=O)c2c(C)oc3c2C2=NCCN2C=N3)cc(OC)c1OC	103.0	102.0
35	COc1ccc(C(=O)N2CCN(CCc3ccccn3)CC2)cc1	110.0	102.0
36	O=C(CN1C(=O)CCn2nc(-c3ccccc3)cc21)NCc1ccc(F)cc1	108.0	111.0
37	Cn1c(=O)c2c(-c3ccccc3Br)n(CCc3ccccc3)cc2n(C)c1=O	102.0	106.0
38	Cn1c(=O)c2sccc2n2c(CCC(=O)NCc3ccccc3Cl)nnc12	102.0	101.0
39	Cc1cc(NC(=O)CSc2nc3c([nH]c4ccccc43)c(=O)n2-c2ccc(Cl)cc2)no1	108.0	112.0
40	COC(=O)c1ccccc1NC(=O)Cn1c(=O)cc(-c2ccccc2)c2c(C)nn(C)c21	105.0	113.0

A section taken from the entries so far, as a working copy:
no.	SMILES	Polio RdRp inh	Polio RdRp inh intensity
23	COc1ccc(OCC(=O)OCc2cc(=O)n3nc(C4CCCCC4)sc3n2)cc1	104.0	110.0
24	COc1ccc(CNC(=O)c2ccc(NC(=O)N3CCSc4ccccc43)cc2)cc1	111.0	113.0
25	COc1ccc(-n2c(=O)c3c4c(sc3n(CC(=O)N3CCCCC3C)c2=O)CCC4)c(OC)c1 (stereo not given)	100.0	106.0
26	COc1ccc(OC)c(NC(=O)CN2CCCN(Cc3ccccc3Cl)S2(=O)=O)c1	110.0	98.0

An excerpt from above in order of length of the SMILES, high to low.
no.	SMILES	Polio RdRp inh	Polio RdRp inh intensity
33	CCN1C(C(=O)c2ccccc2)=C(OC(=O)c2ccccc2OC)c2ccccc2S1(=O)=O	101.0	101.0
24	COc1ccc(CNC(=O)c2ccc(NC(=O)N3CCSc4ccccc43)cc2)cc1	111.0	113.0
22	CCCNC(=O)c1ccc(-n2c(-c3ccccc3)cc3c2CCCCC3)cc1	110.0	104.0

Other compounds.
no.	SMILES	Polio RdRp inh	Polio RdRp inh intensity
41	CCOc1ccc(NC(=O)CC2C(=O)N(c3ccccc3)C(=O)N2C2CCCCC2)cc1 (stereo not given)	106.0	105.0
42	Cc1ccc(-c2csc(=Nc3ccccc3)n2Cc2ccc3c(c2)OCO3)cc1C	103.0	98.0
43	CSc1ncc2c(n1)-c1ccccc1N(Cc1ccc(F)cc1)S2(=O)=O	117.0	109.0
44	Cc1nn(C)c2c1c(C(F)(F)F)cc(=O)n2CC(=O)N1CCC(C)CC1	106.0	112.0
45	Cc1ccc(Cn2c(C(=O)O)c(CNC3CCCCCC3)c3ccc(C)cc32)cc1	104.0	110.0
46	COc1cccc2cc(-c3nc4sc(C(=O)Nc5ccc(F)cc5F)c(C)c4c(=O)[nH]3)c(=O)oc12	102.0	97.0
47	Cc1oc2ncnc(N3CCCCC3)c2c1C(=O)N1CCN(c2cccc(C(F)(F)F)c2)CC1	102.0	103.0
48	Cc1nn(-c2ccc(N3CCCC3)nn2)c(C)c1CCC(=O)NCc1ccc(F)cc1	111.0	106.0
49	N#Cc1cccc(NC(=O)c2sc3nc4c(cc3c2N)N2CCC4CC2)c1	103.0	97.0
50	Cc1cccc(CCNC(=O)CN(c2ccc(C(C)C)cc2)S(=O)(=O)c2c(C)nn(C)c2C)c1	104.0	109.0
51	CCCc1ccc(OCC(=O)Nc2scc(-c3cccs3)c2C(=O)OC)cc1	74.0*	76.0*
52	Cc1ccc2oc(C(=O)Nc3sc4c(c3C(=O)NCC3CCCO3)CCC4)cc(=O)c2c1 (stereo not given)	111.0	114.0
53	COc1cccc(CNC(=O)C2CCCN(c3nc4ccccc4n4cccc34)C2)c1 (stereo not given)	109.0	118.0
54	Cc1cc(OC(C)C(=O)N2CCN(CCc3ccccn3)CC2)ccc1Cl (stereo not given)	110.0	106.0
55	Cc1ccc2oc(=O)n(CCCOc3ccc(Cl)cc3)c2c1	98.0	101.0
56	Cc1ccc(CNC(=O)c2ccc3c(c2)CCN3S(=O)(=O)c2ccc(Br)cc2)cc1	106.0	112.0
57	Cc1cccc(NS(=O)(=O)c2ccc3c(c2)CCN3C(=O)C2CC2)c1C	109.0	111.0
58	COc1ccc(C(=O)Nc2nnc(SCc3cc(=O)n4cc(Cl)ccc4n3)s2)cc1	112.0	115.0
59	O=C(CNC(=O)c1ccccc1Cl)OCc1cc(=O)n2ccsc2n1	110.0	108.0
60	COc1ccccc1NC(=O)Cn1c(=O)n(Cc2nc(C)no2)c(=O)c2cc3c(cc21)OCO3	106.0	111.0
61	CCN(CC)C(=O)Nc1ccc2c(c1)N(Cc1ccccc1)C(=O)c1ccccc1S2	109.0	113.0
62	CCOc1ccc(S(=O)(=O)c2c(C(=O)c3ccc(C)c(C)c3)cnc3ccccc23)cc1	106.0	109.0
63	Cc1[nH]c2ccccc2c1C(c1ccccc1)c1cccs1 (stereo not given)	104.0	103.0
64	CCOCCCNc1ncnc2onc(C)c12	110.0	98.0
65	CCc1ccc(-n2c(=O)c3cccnc3n2CC(=O)NCc2ccccc2)cc1	106.0	101.0
66	Cc1ccc(CCNC(=O)c2c3c(nc4ccccc24)C(=O)N(C2CCCCC2)C3)cc1	108.0	114.0
67	CCC(=O)N1c2ccccc2CC1C(=O)NCCc1ccc(Cl)cc1 (stereo not given)	109.0	97.0
68	COc1ccc(Cc2nc3ccc(C(=O)NCCCN4CCN(C)CC4)cc3o2)cc1	109.0	98.0
69	Cc1ccc(NC(=O)Cn2nnc(-c3nc(-c4ccncc4)no3)c2N)cc1	102.0	97.0
70	Cc1ccc(OC(=O)CSc2nnc(CNC(=O)c3ccccc3)o2)cc1	85.0	89.0
71	Cc1noc2ncnc(Nc3ccc(F)cc3)c12	97.0	103.0
72	CCOc1ccc(NC(=O)c2c(C)oc3nc(C)nc(N4CCCC4)c23)cc1	110.0	112.0
73	O=C(CSc1nc2c([nH]c3ccccc32)c(=O)n1-c1cccc(Cl)c1)NCC1CCCO1 (stereo not given)	110.0	98.0
74	COc1ccc(NC(=O)c2coc(=O)c3ccccc23)cc1OC	108.0	108.0
75	COc1ccccc1CNC(=O)c1ccc(Nc2nc3ccccc3n3nnnc23)cc1	109.0	107.0
76	COc1ccc(-c2onc(C)c2C)cc1S(=O)(=O)NCc1ccco1	111.0	108.0
77	O=C(CCCCn1c(=O)c2ccccc2n(Cc2ccccc2Cl)c1=O)NCc1ccc2c(c1)OCO2	107.0	108.0
78	CCCN(CCC)CCNC(=O)c1ccc2c(c1)NC(=O)C(CS(=O)(=O)Cc1cccc(Br)c1)N2 (stereo not given)	110.0	109.0
79	Cc1ccc(-c2nc(CCNC(=O)C(=O)Nc3ccc(C)c(C)c3)cs2)cc1	101.0	106.0
80	CCCS(=O)(=O)N1CC(=O)N(c2cccc(Cl)c2C)C(C)(C(=O)NC2CCCC2)C1 (stereo not given)	104.0	110.0

By substructure: the entries above with a cyano group
no.	SMILES	Polio RdRp inh	Polio RdRp inh intensity
1	COc1ccc2oc(-c3cccc(NC(=O)c4ccc(C#N)cc4F)c3)nc2c1	106.0	108.0
49	N#Cc1cccc(NC(=O)c2sc3nc4c(cc3c2N)N2CCC4CC2)c1	103.0	97.0

Continued:
no.	SMILES	Polio RdRp inh	Polio RdRp inh intensity
81	COc1cc(C(=O)NCc2nnnn2-c2ccc(C)c(C)c2)cc(OC)c1OC	110.0	117.0
82	CCOC(=O)c1sc(NC(=O)COc2ccccc2Cl)c(C(=O)OCC)c1C	101.0	103.0
83	Cc1cn2c(=O)cc(COC(=O)COc3ccc(F)cc3)nc2s1	98.0	106.0
84	CCOc1ccc(CNC(=O)c2ccc(-c3nc(CS(=O)(=O)c4ccccc4)c(C)o3)cc2)cc1	105.0	107.0
85	Cc1cc(C)cc(NC(=O)C(=O)NCC(c2cccnc2)N2CCOCC2)c1 (stereo not given)	101.0	97.0
86	CCCCn1c(=O)c2oc3ccccc3c2n(CC(=O)Nc2ccccc2OC)c1=O	108.0	96.0
87	CCN(CC)c1ccc(C(=O)NCc2ccc3c(c2)CCN3C(C)=O)cc1	109.0	100.0
88	COc1ccc(N(CC(=O)N2CCN(c3ccccc3)CC2)S(=O)(=O)c2c(C)nn(C)c2C)cc1	108.0	106.0
89	COc1ccc(NC(=O)CSc2nnc(-c3ccncc3)n2-c2ccccc2)cc1	104.0	110.0
90	COc1ccccc1CNc1nc2ccc(C)cc2n2nnnc12	104.0	110.0
91	Cc1cccc(NC(=O)c2oc3ccccc3c2NC(=O)c2cc(=O)c3ccccc3o2)c1	110.0	116.0
92	Cc1nn(-c2ccc(F)cc2)c(-n2cccc2)c1C(=O)NCCCN1CCN(c2ccccc2F)CC1	108.0	117.0
93	COc1cc2nc(SCC(=O)Nc3cccc(C)c3)n3nc(CCn4c(C)nc5ccccc54)nc3c2cc1OC	101.0	103.0
94	COc1cc(NC(=O)Cn2c(=O)nc(-c3ccccc3F)c3cc(Cl)ccc32)cc(OC)c1	100.0	93.0
95	COc1cc(NC(=O)C2CCN(S(=O)(=O)c3c(C)noc3/C=C/c3cccs3)CC2)cc(OC)c1	108.0	113.0
96	CS(=O)(=O)N(CC(=O)NCCc1ccccc1)c1cc(C(F)(F)F)ccc1Cl	107.0	107.0
97	COc1ccc(C)cc1Nc1nc2c(S(=O)(=O)c3cccc(Cl)c3)nnn2c2ccsc12	105.0	107.0
98	COc1ccc(-n2cc(C(=O)NCc3ccccc3)c3ccccc3c2=O)cc1	110.0	98.0
99	CCCn1c(=N)c(C(=O)NCc2cccnc2)cc2c(=O)n3ccccc3nc21	111.0	112.0
100	CCCS(=O)(=O)c1c(S(=O)(=O)CCC)c2cc(C(C)(C)C)ccn2c1C(=O)c1ccc(C)cc1	103.0	104.0
101	CCOc1ccc(NC(=O)CSc2nc3c([nH]c4ccccc43)c(=O)n2-c2cc(C)cc(C)c2)cc1	108.0	116.0
102	CCOc1ccc(C(=O)Nc2cccc(-c3nc4cccnc4s3)c2C)cc1OCC	113.0	110.0
103	CCOC(=O)c1cnc2c(OC)cccc2c1N1CCN(c2ccccc2F)CC1	103.0	105.0
104	Cc1nn(S(=O)(=O)c2ccc(Cl)cc2)c(C)c1S(=O)(=O)N1CCCCCC1	110.0	105.0
105	Cc1ccc(OCCSc2nc3ccccc3n2CC(=O)N2CCOCC2)cc1	112.0	102.0
